Source: PubChem
TRPML1 ag – agonists of human TRPML1 channel; TRPML1-expressing cells, Ca2+ dye fluorescence, FDSS; host cell line not named in the record; reference of the full effect not given here; Q9GZU1; 0.12% of 410,000 active; activation, % (test concentration not listed); in the data active = activation above about 50%; inconclusive = about 30% to 50%; inactive = below about 30%; also: 0% is about no effect; the text of the record puts the active cut at 80%
Target sequence (Q9GZU1 whole entry, looked up): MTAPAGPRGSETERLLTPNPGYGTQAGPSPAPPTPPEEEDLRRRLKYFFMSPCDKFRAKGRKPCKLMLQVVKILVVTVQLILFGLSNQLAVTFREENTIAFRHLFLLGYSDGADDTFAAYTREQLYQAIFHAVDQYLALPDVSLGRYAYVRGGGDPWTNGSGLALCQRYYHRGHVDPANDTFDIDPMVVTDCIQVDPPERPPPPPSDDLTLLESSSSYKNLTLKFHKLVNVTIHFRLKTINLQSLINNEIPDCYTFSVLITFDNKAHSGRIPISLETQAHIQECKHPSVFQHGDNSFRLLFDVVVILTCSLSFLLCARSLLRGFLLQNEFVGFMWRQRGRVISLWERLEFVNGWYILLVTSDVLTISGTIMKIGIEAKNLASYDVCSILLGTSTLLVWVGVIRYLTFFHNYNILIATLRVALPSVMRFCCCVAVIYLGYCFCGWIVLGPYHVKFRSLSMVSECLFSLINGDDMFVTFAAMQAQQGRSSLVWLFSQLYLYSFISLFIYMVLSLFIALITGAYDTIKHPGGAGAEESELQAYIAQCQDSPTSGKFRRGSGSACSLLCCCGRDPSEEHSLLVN
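TRPML1-DL cells, Tet-induced overnight (~16 h, 37 degrees C), loaded 45-90 min at room temperature with Ca8 no-wash calcium dye plus quencher. FDSS fluorescence: 10 s baseline, compound pin-transfer, 110 s agonist read, then EC80 54-4 (4uM final) and 110 s antagonist read.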
TRPML1 inh – blocks the human TRPML1 channel; TRPML1-inducible cells, Ca2+ dye fluorescence, FDSS; hits give low values; inhibition of EC80 agonist-evoked calcium signal; activity change, negative = inhibition, % (test concentration not listed); 0.02% of 390,000 active; in the data active means activity change below about -50%; inconclusive means about -30% to -50%; inactive means above about -30%;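 also: stimulus is agonist 54-4 at its EC80 concentration; % is scaled to controls: 0 for no effect and ±100 for the full control effect; compound concentration not given in the record; the text of the record puts the active cut at -80%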
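TRPML1-DL cells, Tet-induced overnight (~16 h, 37 °C) at 1,500 cells/well, were loaded with Ca8 no-wash dye plus quencher for 45-90 min at room temperature. Compounds were pinned during FDSS kinetic reading; agonist 54-4 at EC80 (4 uM final) then added.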
D2 ag – agonists of human D2 dopamine receptor (beta-arrestin) | DiscoveRx PathHunter D2 beta-arrestin, luminescence, 90 min; 100% = 57 uM dopamine signal | P14416 | 0.084% of 360,000 active | activation, % (concentration not given with the values) | AID 624465; in the data active = activation above about 40%; inconclusive = about 15% to 40%; inactive = below about 15%; also: compound concentration not given in the record; the text of the record calls up to 30% inactive
Target sequence (P14416 whole entry, looked up): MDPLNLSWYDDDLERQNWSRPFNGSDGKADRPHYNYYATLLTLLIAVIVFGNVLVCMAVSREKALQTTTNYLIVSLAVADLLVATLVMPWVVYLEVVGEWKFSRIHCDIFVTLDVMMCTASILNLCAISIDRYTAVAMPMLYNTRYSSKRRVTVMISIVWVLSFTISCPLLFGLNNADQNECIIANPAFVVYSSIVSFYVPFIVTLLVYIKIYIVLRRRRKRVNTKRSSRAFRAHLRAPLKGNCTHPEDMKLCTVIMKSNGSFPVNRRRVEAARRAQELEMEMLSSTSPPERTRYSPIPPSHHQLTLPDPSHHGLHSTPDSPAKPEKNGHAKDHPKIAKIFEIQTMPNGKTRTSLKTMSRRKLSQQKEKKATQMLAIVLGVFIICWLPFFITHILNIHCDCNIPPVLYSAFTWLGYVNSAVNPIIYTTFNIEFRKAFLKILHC
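Agonist mode: compounds alone added to overnight-plated D2 PathHunter cells for 90 min at 37 C, with 57 uM final dopamine (EC100) defining full response. Beta-arrestin recruitment detected by chemiluminescent reagent, read after 1 h at ambient temperature.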
Six1-Eya2 inh – blocks human Six1 binding to Eya2 | AlphaScreen GST-Six1/His-Eya2 binding, biochemical; hits give low values; control for the full effect not named in the record | 0.56% of 360,000 active | Q15475+O00167 | activity change, % (test concentration not listed); in the data active = activity change below about -65%; inconclusive = about -30% to -65%; inactive = above about -30%; also: % is scaled to controls: 0 for no effect and ±100 for the full control effect; compound concentration not given in the record
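Compounds are tested against tagged Six1 and Eya2 proteins bridged by glutathione donor and nickel acceptor beads; after a one-hour incubation at 37 °C without light, AlphaScreen emission is recorded.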
D2 PAM – positive allosteric modulators of human D2 dopamine receptor | DiscoveRx D2 beta-arrestin cells, luminescence, 90 min; 100% = 57 uM dopamine signal | potentiation, % (no concentration beside the values) | 0.23% of 360,000 active | AID 624464; active = potentiation of 50% or more; inconclusive = 30% to 50%; inactive = 30% or less;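 also: compound concentration not given in the record; tested on top of an EC20 dose of dopamine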
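D2 cells co-treated with compound plus 50 nM dopamine (EC20) for 90 min at 37 deg C to detect potentiation. Beta-arrestin recruitment was read as enzyme-fragment luminescence after 1 h at ambient temperature. Full response was set by 57 uM dopamine.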
PINK1 expr mod – PINK1 expression modulation; PINK1 immunofluorescence, high-content cytometry, 24 h; Potency, µM (titrated, usually from 76.6 µM), without a hit: top-dose activation (PINK1 increase), most hits filed as activators; 0.2% of 410,000 active; AID 624263; active = well fitted activation curve with a large enough effect; inconclusive = small, poorly fitted or top-dose-only effect; inactive = flat fitted curve, though single readings scatter; cell line not stated here;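 also: potency is read from the fitted curve at half-maximal effect; % of control where 0% means no effect; nearly all actives have a fitted effect of over 65% in size; a mitochondrial uncoupler was the plate control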
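Decision-based qHTS: stable cells, 24 h exposure to five compound concentrations, CCCP as control. Fixed cells stained for PINK1 plus nuclear, mitochondrial and cell markers, cytometer read.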
* = called active by the depositor; ? = inconclusive; nt = no result given; [ ] = another dose, or the depositor's remark.

SMILES	TRPML1 ag	TRPML1 inh	D2 ag	Six1-Eya2 inh	D2 PAM	PINK1 expr mod
COCCOC(=O)c1c(C)oc2ccc(NS(=O)(=O)c3cccs3)cc12	-0.1	-2	2.2	2	3	-3.3%
COc1ccccc1Cn1c(C(C)C)nc2ccccc21	0.9	13	-4.4	-5	-19	1.8%
CN1CCN(c2nc3c(S(=O)(=O)c4ccccc4)nnn3c3ccsc23)CC1	0.3	-6	nt	nt	nt	1.9%
CN1CCN(C2Cc3cc(F)ccc3Sc3ccc(Cl)cc32)CC1 (stereo not given)	0.0	46	-4.1	-2	-13	-1.8%
CCOC(=O)c1cc(-c2ccccc2)n(CCC(=O)Nc2ccc(C)cc2Cl)c1C	2.4	-6	nt	nt	nt	3.0%
CC(C)[C@H](NC(=O)[C@@H]1CSC2c3ccccc3C(=O)N21)C(=O)NCC1CCCO1 (stereo not given in full)	-0.4	0	2.8	-5	0	-0.7%
O=C(CN1C(=O)CCc2cc(S(=O)(=O)N3CCOCC3)ccc21)NCc1ccccc1	-1.0	-3	nt	nt	nt	0.4%
CCC(CC)N1CCN(CC2CC=CCC2)CC1 (stereo not given)	0.6	-9	-3.9	-8	-27	0.1%
COC(=O)c1c(-c2cccs2)csc1NC(=O)CSc1ncnc2sc(C)c(C)c12	0.6	-1	2.2	-2	-2	0.4%[38.3 µM]
Cc1ccccc1NC(=S)Nc1ccc2cn[nH]c2c1	0.8	-17	2.7	3	8	2.3%
COc1cc(CC(NC(C)=O)C(=O)NC2CCN(C(=O)c3cc(OC)c(OC)c(OC)c3)CC2)cc(OC)c1 (stereo not given)	0.4	-2	-2.1	3	-4	-0.6%
C=CCN(CC=C)CC(O)CN(c1cc([N+](=O)[O-])ccc1OC)S(=O)(=O)c1ccccc1 (stereo not given)	-1.8	10	-0.4	0	-18	2.6%
CCCc1nc2ccc(N)cc2c(=O)n1Cc1ccccc1Cl	-0.2	-4	0.4	1	-39	-1.1%
CCCCN(CC)CCCNC(=O)c1cc2c(=O)[nH]c3ccccc3c2n1C	-1.0	2	nt	nt	nt	-1.5%
COc1ccc(N2CCN(CCNC(=O)CCNS(=O)(=O)c3cccs3)CC2)cc1	1.0	-3	-2.3	-3	-12	-0.4%
CCC1=C(OC(=O)N(CC)CC)N2C(=O)OC(=NCC3CC3)[C@]2(Cc2ccccc2)[C@H]2C1=CC[C@H]1C(=O)N(CC)C(=O)[C@H]12	1.7	70	-3.5	5	-17	1.0%
CCOc1ccc(/C(O)=C2/C(=O)C(=O)N(CCCN3CCOCC3)C2c2ccc(F)cc2)cc1C (stereo not given)	-0.1	3	-1.2	-2	-4	5.1%
Cc1cc(=O)oc2cc(OCC(=O)N/N=C/c3ccccc3O)ccc12	-0.7	7	0.0	-5	-1	16%
COc1cccc2c(=O)cc(C)n(CC(=O)Nc3ccc(Br)cc3)c12	-0.8	-20	-2.4	2	-6	2.0%
CCC(C)[C@@H](C(=O)Nc1ccc(OC)c(OC)c1)N1Cc2ccccc2C1=O (stereo not given in full)	0.3	-2	-2.5	-3	-5	-0.2%
CCOC(=O)CSc1cn2c(n1)CCC2	0.2	-1	-1.9	-1	-1	-7.5%[38.3 µM]
COc1ccc(C(=O)Nc2nnc(S(=O)(=O)N(CC(C)C)c3ccc(C)cc3)s2)cc1OC	4.4	-9	nt	nt	nt	-0.1%
[O-][n+]1ccc(C(O)c2ccccc2)cc1 (stereo not given)	-0.1	-1	3.7	0	-2	2.1%
COc1ccccc1-c1cccc([C@@H]2C[C@H]3[C@H](CON3C)CN2Cc2cc(Cl)cc(Cl)c2)c1	1.4	81	-0.8	-8	-1	0.3%
COc1ccccc1-n1nnnc1SCC(=O)Nc1ccccc1	-0.7	11	6.1	7	-8	13%
Additional entries follow:
SMILES	TRPML1 ag	TRPML1 inh	D2 ag	Six1-Eya2 inh	D2 PAM	PINK1 expr mod
O=C(C1CCN(S(=O)(=O)c2cccs2)CC1)N1CCCCC1	0.3	-5	6.0	-1	-8	0.6%
O=C(Nc1ccccc1N1CCCC1)c1ccccc1F	0.3	-3	-3.7	-5	2	1.4%
COc1cccc(CNCc2ccc(OC)c3ccccc23)c1OC	-0.2	1	2.1	0	-15	?
COC(=O)c1ccc(-n2c(CCC(=O)O)ccc2-c2ccccc2)cc1	1.5	-11	7.4	-8	-6	-1.1%
NC(=O)CSc1nc2ccccc2n1Cc1ccccc1	2.5	0	0.0	4	3	-0.5%
CC(C)CCOP(=O)(c1ccc(N(C)C)cc1)C(O)c1ccc(C(C)C)cc1 (stereo not given)	1.4	7	-0.3	-13	-9	7.0%
CCOc1ccccc1C(=O)Nc1ccc(S(=O)(=O)Nc2nc(C)cc(C)n2)cc1	0.9	7	nt	nt	nt	0.5%
COc1ccc(-n2c(SC)nc(O)c(Cc3ccccc3)c2=O)cc1	1.8	11	-3.6	0	-3	0.0%[38.3 µM]
Cn1nc(N)c2ncc(C(Cl)(Cl)Cl)nc21	-0.6	11	4.3	-15	17	1.6%
Cc1ccc(-n2c(SCC(=O)NCc3ccc4c(c3)OCO4)nnc2-c2cccnc2)c(C)c1	1.1	16	-2.1	-14	-9	-0.8%
COc1cccc(NC(=O)Nc2nnc(N3CCCCC3C)s2)c1 (stereo not given)	0.6	-3	-0.8	0	-1	-0.7%
O=[N+]([O-])c1ccc(NCCCc2ccccc2)cc1	0.0	14	-4.8	-12	-12	19%
CC(=O)c1ccc(NC(=O)Cn2cnc(S(=O)(=O)N3CCc4ccccc43)c2)cc1	0.7	-11	-2.9	1	10	1.3%
CN1C(=O)[C@@H]2[C@@H]3C[C@@H]([C@H]4ON=C(c5ccccc5OCC#N)[C@@H]34)[C@@H]2C1=O	-0.9	6	2.8	-6	0	2.7%
COC(=O)c1ccc(C)c(NC(=O)c2ccc(Cl)c([N+](=O)[O-])c2)c1	0.2	-21	-1.4	29	-16	0.7%
CC(NC(=O)c1ccc2ccccc2n1)c1ccc(Br)cc1 (stereo not given)	0.0	28	-5.0	49	-7	0.6%
COc1ccc(CCNC(=O)CNCC2CCCCC2)cc1OC	0.6	-23	-2.0	1	-3	0.1%
CCNc1nc(NCC)nc(N/N=C/c2ccc(N(C)C)cc2)n1	-0.2	-1	-1.2	-18	-9	0.6%
COc1ccc(NC(=O)Cn2nnc(C(=O)NCCc3ccccc3)c2N)c(OC)c1	-0.2	7	-1.2	0	-12	4.3%
Cc1ccc(NC(=O)N2CCN(Cc3nc4ccc(C)cc4o3)CC2)c(Cl)c1	0.4	8	nt	nt	nt	1.8%
O=C(O)c1ccc2c(c1)C1C=CCC1C(c1cc3c(cc1Br)OCO3)N2 (stereo not given)	0.1	-12	-2.1	-5	-4	3.4%
CCOC(=O)C(=O)c1c(-c2ccccc2)nc2ccccn12	1.1	11	-1.9	-12	-1	-0.4%
CCOC(=O)COn1c(-n2nc(C)cc2C)nc2ccccc2c1=O	-1.1	39	-2.4	7	-3	3.0%
O=C(CCc1nnc2ccc(NCc3ccc(F)cc3)nn12)NC1CCCC1	-0.2	-1	0.6	-5	-6	-0.6%
CC(C)c1ccc(-c2nn(-c3ccccc3)cc2C2C(C#N)=C(N)OC3=C2C(=O)CC(C)(C)C3)cc1 (stereo not given)	-0.2	15	-6.9	?	-4	8.0%

3 entries already listed, ordered by molecular weight, lowest first:
SMILES	TRPML1 ag	TRPML1 inh	D2 ag	Six1-Eya2 inh	D2 PAM	PINK1 expr mod
NC(=O)CSc1nc2ccccc2n1Cc1ccccc1	2.5	0	0.0	4	3	-0.5%
Cc1ccc(NC(=O)N2CCN(Cc3nc4ccc(C)cc4o3)CC2)c(Cl)c1	0.4	8	nt	nt	nt	1.8%
COc1ccc(NC(=O)Cn2nnc(C(=O)NCCc3ccccc3)c2N)c(OC)c1	-0.2	7	-1.2	0	-12	4.3%

Next section:
SMILES	TRPML1 ag	TRPML1 inh	D2 ag	Six1-Eya2 inh	D2 PAM	PINK1 expr mod
CCc1cccc(C)c1NC(=O)COn1nnc2ccc(C(F)(F)F)cc21	1.0	7	2.0	3	-29	-0.7%
CCn1c(=O)c2cc(C(=O)N3CCN(c4cccc(OC)c4)CC3)sc2c2ccccc21	1.1	46	nt	nt	nt	4.0%
Cc1cccc(NC(=O)c2cc3ccccc3c(=O)o2)n1	0.6	10	-3.8	0	-1	7.7%
O=C(Nc1cccc(S(=O)(=O)N2CCCC2)c1)C1CCCN1C(=O)c1cccs1 (stereo not given)	-0.1	13	-2.6	-7	-8	0.6%
O=C(CCS(=O)(=O)c1cccs1)NC1CCCCCC1	-0.4	-4	-4.0	1	1	-2.0%
O=c1cc(CSc2n[nH]c(=O)n2C2CC2)c2ccc(O)cc2o1	3.5	-5	2.4	1	3	-0.4%
COc1ccc(N(CCCN2C(=O)c3cccc4cccc(c34)C2=O)C(=O)c2cccs2)cc1	1.7	48	-1.8	-12	-2	-1.1%
Cc1cc(Cl)cc2c(N=Nc3ccccc3C(=O)O)c(O)[nH]c12	0.1	41	-9.9	-8	-21	0.7%
COc1ccc(-c2csc3ncnc(N4CCN(C(=O)c5ccco5)CC4)c23)cc1	1.4	13	13	1	13	0.8%
CCOc1cc(S(=O)(=O)n2ccc(C)n2)ccc1Br	0.0	-10	-3.0	22	2	1.8%
O=C1CCC[C@@H]2CC(Nc3ccc(F)cc3F)C[C@@H]3CCN1[C@H]23 (stereo not given in full)	-0.2	-8	-1.9	-2	-2	-0.2%
O=C(NCCN1CCC(n2c(=O)[nH]c3ccccc32)CC1)c1cccnc1Cl	-0.4	nt	nt	-2	nt	-1.1%
CC(C)(C)c1ccc(OCCCn2ccnc2)cc1	0.8	58	9.9	-9	-15	1.1%
Cc1ccccc1Nc1nnc(-c2ccc(C)c(S(=O)(=O)N3CCOCC3)c2)c2ccccc12	-0.1	8	nt	nt	nt	1.8%
OC[C@@H]1[C@@H](c2ccc(Cl)cc2)C(c2cccc(Cl)c2)=NN1c1ccccc1	-1.0	-14	2.2	81	6	-1.5%
CCCCN(C(=O)Cc1ccc(S(=O)(=O)N2CCOCC2)s1)c1ccccc1	0.9	-8	0.2	-4	-5	-0.5%
CCOC(=O)/C=C/C(=O)OCC(=O)Nc1ccc([N+](=O)[O-])cc1	0.8	9	0.5	9	-6	5.8%
CN(CCCC(=O)Nc1ccccc1)S(=O)(=O)c1ccc(Cl)cc1	1.5	43	-3.3	8	-3	5.6%
O=C(Cc1ccccc1)N1O[C@H]2C=C[C@@H]1CC2	-0.3	4	-2.5	4	nt	0.0%
CCCCn1c2ccc(F)cc2c2nnc(SCCN3CCOCC3)nc21	-1.8	5	4.6	-5	-12	-1.3%
Cc1ccc(S(=O)(=O)N(CC(=O)N/N=C/c2ccccc2C(=O)O)c2cc(Cl)cc(Cl)c2)cc1	-0.2	2	-5.1	-5	-11	4.5%

Single entries from the entries so far.
`CCn1c(=O)c2cc(C(=O)N3CCN(c4cccc(OC)c4)CC3)sc2c2ccccc21` in PINK1 expr mod shows 4.0%
`Cc1cccc(NC(=O)c2cc3ccccc3c(=O)o2)n1` in D2 ag shows -3.8
`O=C(Cc1ccccc1)N1O[C@H]2C=C[C@@H]1CC2` in Six1-Eya2 inh shows 4
`OC[C@@H]1[C@@H](c2ccc(Cl)cc2)C(c2cccc(Cl)c2)=NN1c1ccccc1` in D2 ag shows 2.2
